Source: PubChem BioAssay (National Center for Advancing Translational Sciences (NCATS))
VDR inh – Inhibitors of the vitamin D receptor (VDR): qHTS | VDR-SRC2-3 peptide fluorescence polarization, 2 h | Potency, µM, for the others: max response, negative = inhibition, hits mostly inhibitors | 400,000 compounds, 0.93% hits | AID 504847, 2011; active = well fitted inhibition curve with a large enough effect; inconclusive = small, poorly fitted or top-dose-only effect, or another doubt; inactive = no such curve, though single readings can be large or run the other way; note: series mostly up to about 120 µM
Target sequence (P11473 whole entry, looked up): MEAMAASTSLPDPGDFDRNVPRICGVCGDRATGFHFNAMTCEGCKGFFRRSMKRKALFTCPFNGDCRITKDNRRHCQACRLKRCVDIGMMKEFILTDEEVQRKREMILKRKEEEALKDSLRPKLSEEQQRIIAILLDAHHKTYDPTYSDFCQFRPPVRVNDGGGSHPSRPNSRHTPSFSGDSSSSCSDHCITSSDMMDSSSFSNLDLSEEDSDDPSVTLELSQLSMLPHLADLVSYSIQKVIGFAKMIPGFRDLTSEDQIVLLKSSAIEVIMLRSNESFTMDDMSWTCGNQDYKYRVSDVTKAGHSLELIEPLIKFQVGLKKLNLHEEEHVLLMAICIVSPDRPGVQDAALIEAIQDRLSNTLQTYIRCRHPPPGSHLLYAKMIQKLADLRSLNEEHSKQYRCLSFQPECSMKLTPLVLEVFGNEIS
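FP read-out; VDR + SRC2-3 coactivator peptide; 23 nl compound by pintool; 2 h RT incubation; reagents held at 4 deg C, protected from light.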
* = called active by the depositor; u = inconclusive; & = joins results of further samples; [ ] = remark or other dose. % is set by controls: 0 for no effect and ±100 for the full control effect; potency is the fitted concentration of half-maximal effect. The list is partial, so the mix of outcomes need not match the whole.

Molecule | VDR inh
COc1ccccc1Oc1ccc(N/C=C/C(=O)C(C)(C)C)cc1 | 16%
O=C(CCC1N=C2c3ccccc3N=C(SCc3ccc(Cl)cc3)N2C1=O)NCc1ccco1 (centres undefined) | 2%
Cc1cc(-c2ccccc2)n2nc(N)nc2n1 | 25%
COc1ccc(N(Cc2cc3ccc(C)cc3[nH]c2=O)C(C)=O)cc1 | -4%
Cc1ccc(-c2nnn(CC(=O)N(Cc3cccs3)C(C(=O)NC3CCCCC3)c3ccco3)n2)o1 (centres undefined) | -9%
Cc1ccc(Cn2cc(C(=O)c3ccc4c(c3)OCO4)c(=O)c3cc(C)ccc32)cc1 | 9%
CC1CCCN(CCOc2ccc(Br)cc2)C1 (centres undefined) | -21%
COc1ccc(OC)c(NC(=O)COC(=O)CN(C)S(=O)(=O)c2ccc(C)cc2)c1 | -16%
CN1CCN(S(=O)(=O)c2cccc(C(=O)Nc3sccc3C#N)c2)CC1 | 91%[activator]
Cn1c(=O)c2c(-c3ccc(Cl)cc3)n(Cc3ccccc3)cc2n(C)c1=O | -18%
CC(C)(C)NC(=O)C(c1c[nH]c2ccccc12)N(C(=O)Cn1nnc(-c2ccc(F)cc2)n1)c1cccc(O)c1 (centres undefined) | u
COc1ccc(NC(=O)CSc2nc(C3CC3)nc3ccccc23)c(OC)c1 | -24%
O=C(Nc1ccc(C2=NCCN2)cc1)c1ccc(C(=O)Nc2ccc(C3=NCCN3)cc2)c(Cl)c1 | 3%
CC(C)=CC(=O)OCC(=O)Nc1ccccc1Cl | -1%
COc1cccc(C2CC(c3cccc(Br)c3)n3ncnc3N2)c1 (centres undefined) | -14%
COc1ccc(N2CCN(C(=O)c3cccc(N4C(=O)C5CC=CC(C)C5C4=O)c3)CC2)cc1 (centres undefined) | -7%
Cc1cccc(NC(=O)CSc2nc3ccccc3nc2N2CC(C)OC(C)C2)c1 (centres undefined) | 6%
O=C(CSC1CC(=O)N(CCc2ccccc2)C1=O)Nc1ccc(Cl)cc1 (centres undefined) | -16%
O=C(CSc1nc2ccc(Cl)cc2o1)NCc1ccc2c(c1)OCO2 | -9%
COc1ccc(/C=N/Nc2nc(-c3ccc(C)cc3)c(NC(C)=O)s2)cc1 | u
Cc1ccc(C(=O)C(OC(=O)CNS(=O)(=O)c2ccccc2)c2ccccc2)cc1 (centres undefined) | -4%
Nc1nc2cc(Cl)c(Br)cc2o1 | 6%
CCC(Sc1nnc(C)c(=O)[nH]1)C(=O)Nc1cccc2ccccc12 (centres undefined) | -12%
CC1CCN(CC(=O)Nc2ccccc2C(=O)NC2CC2)CC1 | 4%
CC(C)n1c(SCC(N)=O)nc2c1c(=O)n(C)c(=O)n2C | 14%
COC(=O)C1=C(NC(=O)C(C)(C)C)CCS1 | -1%
CCCN1C2CCCC1CC(NC(=O)Nc1ccc(C(C)C)cc1)C2 (centres undefined) | -12%
CCOc1ccccc1C1CC(=O)NC(C)=C1C(=O)OCc1ccc(C)cc1 (centres undefined) | -12%
CCCCn1nc2cc(C(=O)NCC34CC5CC(CC(C5)C3)C4)ccc2c1OCC | -18%
COc1ccc(-c2cccc(C(=O)Nc3ccccc3C)c2)cc1 | -11%
COc1ccc(C(=O)N[C@H](C(=O)Nc2nc3ccccc3[nH]2)C(C)C)cc1 | -25%
Cc1nc(N)[nH]c(=O)c1CCCNc1ccc(CCCCC2(CCl)OCCO2)cc1 | -1%
Cc1nn(Cc2c(F)c(F)c(F)c(F)c2F)c(C)c1NC(=O)c1nn(C)cc1Br | -6%
CC(C)CN1CCC2(CC1)CCN(C(=O)c1ccncc1)CC2 | 5%
N#CC1=C(N)Oc2ccc3ccc(O)cc3c2C1c1ccsc1 (centres undefined) | -20%
CC(Oc1ccc(C(=O)NCCc2ccccc2)cc1)C(=O)O (centres undefined) | -11%
Cc1ccc2c(c1)c1nc3ccccc3nc1n2CCN1CCOCC1 | 3%
COc1cccc(N2CCN(C(=O)c3nc(-c4ccc(Cl)cc4)n4c3CCCCC4)CC2)c1 | 4%
CCOC(=O)c1c(NC(=O)COc2ccc(F)cc2)sc2c1CCC(C)C2 (centres undefined) | u
O=C(O)CCc1ccc(NCc2cccc(Oc3ccccc3)c2)cc1 | u
Cc1cnc(CNc2ccnc(-c3cccc(C#N)c3)n2)cn1 | 6%
O=C(NCCc1cccc(Cl)c1)c1cccs1 | 8%
COc1ccc2c(CNCc3ccco3)c(C(=O)O)n(Cc3ccccc3)c2c1 | 5%
O=C(Cn1cnc2c(cnn2-c2ccc(Cl)cc2)c1=O)NCC1CCCO1 (centres undefined) | 7%
Cc1cc(C)c([N+](=O)[O-])cc1-c1ccc(/C=N/c2c(-c3ccco3)nc3ccccn23)o1 | u
O=C(Cn1c(-c2cccs2)cc2cc(F)ccc21)NCCc1ccc(Cl)cc1 | -12%
CSc1nc(C)c2c(c1C#N)CCCC2 | 6%
CCOc1ccc(-n2c(C)nc(O)c2N=Nc2ccccc2)cc1 | 2%
CNC(=O)c1[nH]cnc1C(=O)Nc1ccc(C)cc1 | -17%
Cc1ccc(O)c(C(=O)c2cnn(-c3ccccc3)c2)c1 | u
Cc1ccc2nc(SCC(=O)N3CCN(c4ccccc4)CC3)nc(=O)n2c1 | 3%
C/C(=N\NC(=O)c1cccc(S(=O)(=O)N2CCOCC2)c1)c1ccc(OCC(=O)N(C)C)cc1 | 3%
COc1cccc(C(=O)O[C@@H]2[C@H](Cc3ccccc3)NS(=O)(=O)[C@H]3C[C@@H]4C=C[C@]23O4)c1 | -20%
O=C(NN1C(=O)C2C(C1=O)C1C=CC2C12CC2)c1cccc(Cl)c1 (centres undefined) | -8%
C=CC[n+]1cccc(-c2cc3ccc(C)cc3[nH]2)c1 | -9%
Cc1c(CCC(=O)N2CCC(C(=O)NCCCCCC(=O)O)CC2)c(=O)oc2cc3oc4c(c3cc12)CCCC4 | -9%
O=C(CCc1c[nH]c2ccccc12)N1CCCCCCC1 | -13%
COCc1cc(Sc2ccc(Cl)cc2Cl)nc(-c2ccccc2)n1 | 2%
COc1ccccc1C1CC(c2ccccc2)=NN1C(=O)c1ccccc1 (centres undefined) | -12%
CCn1cc(C(=O)NCCCOC(C)C)c2cc(OC)c(OC)cc2c1=O | 3%

Next section:
Molecule | VDR inh
COc1ccc(OC)c(-n2cnc3cc(C(=O)NCCc4ccccc4)ccc32)c1 | 6%
Cc1cnc(NC(=O)CCN2C(=O)C3CCCCC3C2=O)s1 (centres undefined) | u
C=CCn1ccc(O)c(Cc2ccc(Cl)cc2)c1=O | -8%
Cn1c(=S)n(CCC(=O)O)c2ccccc21 | 2%
CN1CCN(C(=O)c2ccc3c(c2)NC(=O)C(C)(C)O3)CC1 | -2%
Cc1ccc(NC(=O)NC(=O)COc2ccc(Cl)cc2Cl)c(C)c1 | -16%
CC(C)(C)c1csc(NC(=O)CCc2ccccc2)n1 | -4%
Cc1ccc(CS(=O)(=O)Cc2ccc(C(=O)NCCCN3CCOCC3)o2)cc1 | 4%
c1ccc2[nH]c(NCCCc3cnc[nH]3)nc2c1 | 0%
CCOc1cc(/C=N/Nc2nc(N3CCCC3)nc(N3CCCC3)n2)ccc1O | 11%
Cc1cc(C)n(CCc2nc3c4ccccc4nc(N4CCN(c5cccc(C)c5C)CC4)n3n2)n1 | 1%
CCC(C)Sc1cc(-c2nc3cc(C)ccn3c2NC2CCCCC2)ccc1OC (centres undefined) | -3%
COCc1c(C(=O)N/N=C\c2ccccn2)nnn1-c1nonc1N | 13%
O=C(O)C(c1ccccc1)N1C(=O)/C(=C\c2ccc(O)c(O)c2)SC1=S (centres undefined) | -12%
Cn1c(C2CCCCC2)nc2cc(N)ccc21 | 9%
CC(C)(C)C(=O)NCCN1C(=O)S/C(=C\c2ccc([N+](=O)[O-])cc2)C1=O | 0%
CCC(c1nnnn1C1CCCC1)N(Cc1cccs1)Cc1cc2cc(C)ccc2[nH]c1=O (centres undefined) | -12%
Cn1nc(-c2ccc(OCC(=O)Nc3ccccc3)cc2)c2ccccc2c1=O | 2%&27%
O=C(NC(=S)N1CCN(Cc2ccc3c(c2)OCO3)CC1)c1ccc(Cl)cc1 | -23%
O=C(NCC1CCCCC1)c1ccccc1[N+](=O)[O-] | -6%
CCOC(=O)CSc1nc2ccccc2c(=O)n1CCC(=O)NCCc1ccc(OC)c(OC)c1 | -17%
COc1ccc(/C=C/C(=O)Nc2sc3c(c2C(=O)NCc2cccnc2)CCCC3)cc1 | 12%
Cc1ccc2sc(NNC(=O)c3ccc4c(c3)OCCO4)nc2c1C | 0%
CC1O[C@@H](Oc2c(-c3ccc(O)c(O)c3)oc3cc(O)cc(O)c3c2=O)C(O)C(O)C1O (some centres undefined) | -4%
O=C(Nc1ccccc1[N+](=O)[O-])c1csnn1 | -3%
CCc1ccccc1-n1nnc(-c2nsc(NC(=O)c3ccc(C)c(C)c3)n2)c1C | 14%
Cc1ccc(Cl)cc1NC(=O)CSc1nc2c(c(=O)[nH]1)CN(Cc1ccccc1)CC2 | 18%
Cc1sc(NC(=S)NC(=O)c2cccs2)nc1-c1ccc(C(C)C)cc1 | -9%
Cn1cc(CNC(=O)COc2ccc(Cl)cc2Cl)cn1 | -16%
CCOc1ccc(NC(=O)CS(=O)(=O)c2cn(CC)c3ccccc23)cc1 | 5%
N#C/C(=C\Nc1ccccn1)S(=O)(=O)c1ccc(Cl)cc1 | 10%
Cc1nnn(C23CC4CC(CC(CC(=O)Nc5ccc(C)c(C)c5)(C4)C2)C3)n1 | -20%
O=C(C1CC1)N1CCc2cc(S(=O)(=O)N3CCCc4ccccc43)ccc21 | 0%
O=C(C1CCN(c2nnc(-n3cccc3)s2)CC1)N1CCc2ccccc2C1 | -23%
COCCOCC(=O)Nc1ccc(S(=O)(=O)Nc2cc(C)nc(C)n2)cc1 | -4%
CCN(CC)C(=O)c1cccc(NC(=O)C2=COCCO2)c1 | -4%
O=S(=O)(Nc1cc(F)ccc1F)c1ccc2[nH]c3c(c2c1)CCCCC3 | -3%
O[C@@H]1C2CCCC1[C@]1(O)CCCCC1C2 (some centres undefined) | -7%
Cc1ccccc1N=Nc1c(O)n(C)c2ccccc12 | -22%
COc1ccccc1C1CCN(C(=S)Nc2ccc(Br)cc2)CC1 | -1%
O=C(Nc1c(C(=O)N2CCOCC2)oc2ccccc12)c1ccccc1Cl | -1%
O=C1CCc2ccccc2O1 | -16%
Cc1ccc(-c2n[nH]c(=S)c3ccccc23)cc1S(=O)(=O)NCC1CCCO1 (centres undefined) | 6%
CCOC(=O)C1CCCN(C(=O)Cn2ncc3c4ccccc4n(Cc4ccc(F)cc4)c3c2=O)C1 (centres undefined) | 6%
Cc1ccc(N(C)S(=O)(=O)c2ccc3c(c2)C(C)(C)C(=O)N3C)cc1C | -13%
Cc1ccc(C)c(Nc2nn3c(=O)c4cc5c(cc4nc3s2)OCO5)c1 | -7%
C=CCN1CCN(c2ccncc2S(=O)(=O)N2CCCCC2)CC1 | 7%
CCc1cc2c(=O)c(-c3ccc4c(c3)OCO4)coc2c(CN(C)C)c1O | -17%
Cn1c(SCC(=O)N2CCOCC2)ncc(C(=O)Nc2ccccc2)c1=O | -2%
COC(=O)CN1C(CN2CCOCC2)=Nc2ccc(Br)cc2C1c1ccccc1 (centres undefined) | 17%
Cn1c(Cn2c(=O)sc3ccccc32)nnc1SCC(=O)Nc1ccc(Cl)cc1 | -11%
CC(Oc1cccc(Cl)c1)C(=O)Nc1cc(S(=O)(=O)N2CCOCC2)ccc1N1CCCC1 (centres undefined) | 9%
COc1ccc(-n2c(SCC(=O)N3CCCCC3C)nnc2-c2cccnc2)cc1 (centres undefined) | 4%
Clc1ccc(C2CC(c3cccs3)n3ncnc3N2)c(Cl)c1 (centres undefined) | -7%
S=C1Cc2ccccc2N1 | 2.2µM*
Cc1sc2ncnc(SCC(=O)N3CCN(C(=O)c4ccco4)CC3)c2c1C | 12%
O=C(O)COc1ccc(S(=O)(=O)c2ccc(OCC(=O)O)cc2)cc1 | 7%

Compounds above that have an NH in an aromatic ring, in the order listed:
Molecule | VDR inh
COc1ccc(N(Cc2cc3ccc(C)cc3[nH]c2=O)C(C)=O)cc1 | -4%
CC(C)(C)NC(=O)C(c1c[nH]c2ccccc12)N(C(=O)Cn1nnc(-c2ccc(F)cc2)n1)c1cccc(O)c1 (centres undefined) | u
CCC(Sc1nnc(C)c(=O)[nH]1)C(=O)Nc1cccc2ccccc12 (centres undefined) | -12%
COc1ccc(C(=O)N[C@H](C(=O)Nc2nc3ccccc3[nH]2)C(C)C)cc1 | -25%
Cc1nc(N)[nH]c(=O)c1CCCNc1ccc(CCCCC2(CCl)OCCO2)cc1 | -1%
CNC(=O)c1[nH]cnc1C(=O)Nc1ccc(C)cc1 | -17%
C=CC[n+]1cccc(-c2cc3ccc(C)cc3[nH]2)c1 | -9%
O=C(CCc1c[nH]c2ccccc12)N1CCCCCCC1 | -13%
c1ccc2[nH]c(NCCCc3cnc[nH]3)nc2c1 | 0%
CCC(c1nnnn1C1CCCC1)N(Cc1cccs1)Cc1cc2cc(C)ccc2[nH]c1=O (centres undefined) | -12%
Cc1ccc(Cl)cc1NC(=O)CSc1nc2c(c(=O)[nH]1)CN(Cc1ccccc1)CC2 | 18%
O=S(=O)(Nc1cc(F)ccc1F)c1ccc2[nH]c3c(c2c1)CCCCC3 | -3%
Cc1ccc(-c2n[nH]c(=S)c3ccccc23)cc1S(=O)(=O)NCC1CCCO1 (centres undefined) | 6%

3 successive records already listed:
Molecule | VDR inh
N#C/C(=C\Nc1ccccn1)S(=O)(=O)c1ccc(Cl)cc1 | 10%
Cc1nnn(C23CC4CC(CC(CC(=O)Nc5ccc(C)c(C)c5)(C4)C2)C3)n1 | -20%
O=C(C1CC1)N1CCc2cc(S(=O)(=O)N3CCCc4ccccc43)ccc21 | 0%
